Screening results: PubChem BioAssay, National Center for Advancing Translational Sciences (NCATS)
Cruzain noTriton: inhibitors of Trypanosoma cruzi cruzain without detergent; 2.3% of 200,000 active; P25779; purified cruzain, Z-FR-AMC fluorescence, no detergent; Potency, µM, inactives show max response, negative = inhibition, hits mostly inhibitors;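 further: plate controls were enzyme without inhibitor for no effect and buffer without enzyme for full effect; nearly all actives have a fitted effect of over 40% in size; top concentration of the series not given in the record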
Target sequence (P25779 123-467 limits assumed): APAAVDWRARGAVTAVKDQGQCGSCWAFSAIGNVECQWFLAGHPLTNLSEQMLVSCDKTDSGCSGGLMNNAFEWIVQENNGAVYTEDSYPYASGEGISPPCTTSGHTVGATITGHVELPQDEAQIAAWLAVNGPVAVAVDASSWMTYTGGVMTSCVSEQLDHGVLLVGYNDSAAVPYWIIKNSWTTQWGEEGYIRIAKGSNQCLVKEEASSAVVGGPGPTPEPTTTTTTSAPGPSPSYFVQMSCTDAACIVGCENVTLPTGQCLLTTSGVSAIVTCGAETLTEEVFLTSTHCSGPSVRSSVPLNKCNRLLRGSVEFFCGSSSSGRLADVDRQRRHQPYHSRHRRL
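Purified cruzain at 1.5 nM, pre-incubated 15 min with compound at room temperature in 100 mM sodium acetate pH 5.5, 5 mM DTT, 0.00005% Triton X-100. Reaction started with 2 uM Z-FR-AMC; AMC fluorescence increase over 60 s gives rate.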
NS1 inh: blocks influenza NS1 protein function. S. cerevisiae slowed by influenza A NS1, growth recovery by OD600. Potency, µM (titrated, usually from 46.1 µM), without a hit: at the top dose activity, positive = more growth. 0.4% of 270,000 active. AID 2326; active means well fitted rising curve with a large enough effect; inconclusive means small, poorly fitted or top-dose-only effect; inactive means no such curve, though single readings can be large or run the other way; further: nearly all actives have a fitted effect of over 50% in size
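S. cerevisiae expressing influenza A NS1, grown in glucose, washed, then diluted 1:100 into pH 6.0 -URA galactose medium with 23 nl compound. Growth recovery read as OD600; NS1-free strain serves as control.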
Lassa entry inh: blocks Lassa virus binding to or entry into cells; Lassa virus pseudotype entry inhibition, cell reporter; control for the full effect not named in the record; Potency, µM (titrated, usually from 37.9 µM), for the others: at the highest dose activity change, negative = inhibition, most hits filed as inhibitors; 1.2% of 300,000 active; AID 540256; active means well fitted inhibition curve with a large enough effect; inconclusive means small, poorly fitted or top-dose-only effect, or effect the other way; inactive means flat fitted curve, though single readings scatter; tested in HEK293 cells; further: on the % scale 0 is the no-effect control and ±100 the full control effect; nearly all actives have a fitted effect of over 50% in size; luciferase read-out
StopGo reporter: FMDV 2A StopGo reporter, luciferase signal. Potency, µM (series often up to 57.9 µM), for inactives: at the top dose signal change, negative = less light. AID 1159524. 1.2% of 410,000 active. human cells with a luciferase reporter of 2A StopGo recoding; control for the full effect not named in the record; active = well fitted falling curve with a large enough effect; inconclusive = small, poorly fitted or top-dose-only effect; inactive = no such curve, though single readings can be large or run the other way; tested in HEK293T cells; further: on the % scale 0 is the no-effect control and ±100 the full control effect; nearly all actives have a fitted effect of over 45% in size; luciferase light after 4 h
Marburg entry inh: Marburg virus entry inhibition. Marburg virus pseudotyped entry inhibition, cell reporter; control for the full effect not named in the record; about a third of the inactives were read at about 46 µM. Potency, µM (series often up to 37.8 µM), for the others: top-dose activity change, negative = inhibition, most hits filed as inhibitors. 1.8% of 300,000 active. AID 540276; active = well fitted inhibition curve with a large enough effect; inconclusive = small, poorly fitted or top-dose-only effect, or effect the other way; inactive = flat fitted curve, though single readings scatter; tested in HEK293 cells; about a fifth of its hits are not listed in these tables; further: on the % scale 0 is the no-effect control and ±100 the full control effect; luciferase read-out
RE007 growth inh: less growth of the S. pombe RE007 Vpr strain; S. pombe RE007 Vpr strain, BacTiter-Glo ATP luminescence, 24 h; control for the full effect not named in the record; Potency, µM (highest dose often 92.2 µM), inactives show top-dose activity change, negative = less growth; 0.21% of 360,000 active; active = well fitted falling curve with a large enough effect; inconclusive = small, poorly fitted or top-dose-only effect; inactive = no such curve, though single readings can be large or run the other way;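 further: on the % scale 0 is the no-effect control and ±100 the full control effect; nearly all actives have a fitted effect of over 50% in size; the assay follows cell death caused by Vpr and the record does not say whether a fall means rescue or toxicity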
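Fission yeast RE007 carrying one integrated HIV-1 vpr copy, seeded at OD 0.01 in PMG+AL medium with 23 nL pinned compound. Grown 24 h at 30 degrees; viability read by BacTiter-Glo luminescence after 5 min.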
Cruzain Triton: cruzain (T. cruzi) inhibition with detergent | P25779 | purified cruzain, Z-FR-AMC fluorescence, 0.01% Triton | Potency, µM, for the others: max response, negative = inhibition, usual class: inhibitors | 0.43% of 200,000 active;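 further: plate controls were neutral wells for no effect and buffer without enzyme for full effect; nearly all actives have a fitted effect of over 40% in size; top concentration of the series not given in the record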
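Compounds were screened in titration against cruzain (1.5 nM) with 0.01% Triton X-100 to counter colloidal aggregation. Activity was the AMC fluorescence increase over 60 s after adding 2 uM Z-FR-AMC at pH 5.5.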
SARS PLP yeast: SARS-CoV PLP inhibition in yeast | 0.19% of 330,000 active | S. cerevisiae expressing SARS-CoV PLpro, growth rescue; control for the full effect not named in the record | Potency, µM (doses to about 32.9 µM), for inactives: top-dose activity, positive = growth rescue; active means well fitted rising curve with a large enough effect; inconclusive means small, poorly fitted or top-dose-only effect; inactive means no such curve, though single readings can be large or run the other way; further: 0% is about no effect; nearly all actives have a fitted effect of over 55% in size; growth read by luminescence after 48 h
* = called active by the depositor; ? = inconclusive; . = no result given; & = joins results of further samples; [ ] = dose if it differs, or a comment. Unless noted, the call rests on the fitted dose curve; in most records, active means well fitted curve in the direction sought with a large enough effect; inconclusive means small, poorly fitted or top-dose-only effect, or another doubt; inactive means no such curve, though single readings can be large; an effect the other way counts as inactive or inconclusive. Potency means the concentration at half of the fitted maximal effect.

Values run as follows: Cruzain noTriton	NS1 inh	Lassa entry inh	StopGo reporter	Marburg entry inh	RE007 growth inh	Cruzain Triton	SARS PLP yeast
- CCOP(=O)(c1ccccc1)C(O)c1ccc(F)cc1 (stereo not drawn)
  -2%	4%	22%	-10%	?	1%	-1.8%	19%
- Fc1ccc(-c2n[nH]c(=S)n2-c2ccc3c(c2)OCCO3)cc1
  .	3%	.	12%	.	-7%	.	1%
- Cc1ccc(S(=O)(=O)N/N=c2\oc3ccccc3cc2C(=O)Nc2cccc(C)c2)cc1
  7.9µM*	7%	10%	.	5%	.	-1.9%	0%
- COc1cccc(NC(=O)C2CCN(Cc3cnn(-c4ccccc4)c3-n3cccc3)CC2)c1
  -6%	10%	?	?	?	-2%	5.7%	7%
- CCOC(=O)c1nc(Nc2ccc(C(C)=O)cc2)c2ccccc2n1
  -23%	3%	-25%[46.1 µM]	-24%&-24%	-8%[46.1 µM]	-7%	-16%	0%
- Cc1ccc(-c2ccc(/C=C/C(=O)c3ccccc3)o2)cc1
  -11%	-1%	?	20%	20%	.	-12%	9%
- Cc1ccc(S(=O)(=O)N(CC(O)CN2CCOCC2)c2cc(Cl)ccc2Cl)cc1 (stereo not drawn)
  15%	-3%	?	-5%	4%&-1%	-2%	-2.1%	-4%
- O=C(CCc1nnc(C2CCCCC2)o1)N1CCN(C2CCCCC2)CC1
  .	0%	14%	5%	26%[46.1 µM]	2%	.	1%
- O=C(CS(=O)(=O)Cc1ccccc1)Nc1ccc(Br)cc1F
  .	.	-7%	32%[activator]	17%	-3%	.	.
- O=C(/C=C/c1cccc([N+](=O)[O-])c1)N1CCN(S(=O)(=O)c2cccs2)CC1
  .	3%	-19%	?	19%[46.1 µM]	0%	.	-1%
- O=C(Oc1ccc2c(=O)c(Cl)coc2c1)c1cccnc1
  -6%	-116%	-7%	8%	5%	-6%	1.6%	-4%
- COc1ccc(/C=N/NC(=O)c2ccc3ccccc3c2)cc1OS(=O)(=O)c1ccc(NC(C)=O)cc1
  -21%	10µM*	?	.	?	4%	-5.6%	4%
- C=CCn1c(SCc2nc3ccccc3nc2C)nnc1-c1ccoc1C
  -3%	2%	13%	-22%	17%[46.1 µM]	11%	0.1%	-7%
- O=C(CSc1nnc(-c2ccccc2)n1-c1ccccc1)c1ccc[nH]1
  ?	13%	-1%	-2%	?	-3%	2.0%	19%
- C/C=C/C(=O)Nc1cccc(C2=NOC3(C2)C[C@@H](C(N)=O)N(C(=O)c2cc([N+](=O)[O-])cc([N+](=O)[O-])c2)C3)c1 (stereo partly drawn)
  .	-8%	.	-12%	.	-24%	.	2%
- CC(C)CN(CCCNC(=O)c1cc(-c2ccc(Br)s2)nc2ccccc12)CC(C)C
  -3%	.	?	-14%	-6%[46.1 µM]	.	-2.9%	.
- CCCC(=O)Nc1ccc(C=C(C(C)=O)C(C)=O)cc1
  .	-1%	18%	22µM*	-11%	17%	.	-3%
- CCCc1nc2oc(C(=O)c3ccccc3)c(N)c2c2c1COC(C)(C)C2
  ?	-7%	-16%	-15%	-18%	2%	-4.9%	6%
- COC(=O)C1=CN(Cc2cccs2)C=C(C(=O)OC)C1c1cccc(Cl)c1
  .	-4%	?	-21%	-26%[46.1 µM]	42%	.	-1%
- COc1ccc(-c2nc3sc(CCNC(=O)C(=O)Nc4ccccc4C#N)c(C)n3n2)cc1
  3%	.	9%[46.1 µM]	4%	.	.	-1.6%	.
- CCc1nc(SCC(=O)Nc2ccc(F)cc2)c2c(=O)n(C)c(=O)n(C)c2n1
  .	12%	-2%	?	-23%	-7%	.	-3%
- Cc1ccc(CN(Cc2ccco2)C(=O)COc2ccc(C(C)C)cc2)cc1
  ?	.	-12%[46.1 µM]	-22%	18%[46.1 µM]	.	-3.6%	.
- O=C(NCc1ccccc1Cl)c1cccc(OC2CCN(C(=O)C3CC3)CC2)c1
  .	-22%	-8%	?	-59%	27%	.	-4%
- Cc1csc(NC(=O)C2CCCO2)n1 (stereo not drawn)
  1%	-2%	12%	22%	12%	-14%	3.4%	7%
- O=C(Nc1cccc(Cl)c1)N1CCC(CO)(CCOc2ccccc2)CC1
  .	-3%	.	-1%	.	1%	.	-1%
- Cc1ccc(S(=O)(=O)N/N=C\c2ccc([N+](=O)[O-])o2)cc1
  -6%	-11%	-17%	2%	-5%	?	-9.9%	-29%
- O=C1CN(c2nnnn2-c2ccccc2)CCN1
  -6%	0%	3%	-3%	8%	1%	5.2%	4%
- Cc1ccc(CNC(=O)CSc2nc3ccsc3c(=O)n2Cc2ccccc2F)cc1
  11%	.	28%[46.1 µM]	-6%	.	.	0.2%	.
- CCOC(=O)c1sc(N)c(C#N)c1COC(=O)CNC(=O)c1cc(OC)c(OC)c(OC)c1
  9%	-3%	19%	-6%	?	-13%	-1.8%	5%
- COCCN1C(=O)c2oc3cc(C)c(C)cc3c(=O)c2C1c1cccc(O)c1 (stereo not drawn)
  .	.	0%	-3%	3%	-4%	.	.

Full records from above. Values in the order: Cruzain noTriton, NS1 inh, Lassa entry inh, StopGo reporter, Marburg entry inh, RE007 growth inh, Cruzain Triton, SARS PLP yeast
`COc1ccc(/C=N/NC(=O)c2ccc3ccccc3c2)cc1OS(=O)(=O)c1ccc(NC(C)=O)cc1` is listed with -21%, 10µM*, ?, ., ?, 4%, -5.6%, 4%
`O=C(CSc1nnc(-c2ccccc2)n1-c1ccccc1)c1ccc[nH]1` is listed with ?, 13%, -1%, -2%, ?, -3%, 2.0%, 19%
`C=CCn1c(SCc2nc3ccccc3nc2C)nnc1-c1ccoc1C` is listed with -3%, 2%, 13%, -22%, 17%[46.1 µM], 11%, 0.1%, -7%
`O=C(NCc1ccccc1Cl)c1cccc(OC2CCN(C(=O)C3CC3)CC2)c1` is listed with ., -22%, -8%, ?, -59%, 27%, ., -4%

Next section:
Values run as follows: Cruzain noTriton	NS1 inh	Lassa entry inh	StopGo reporter	Marburg entry inh	RE007 growth inh	Cruzain Triton	SARS PLP yeast
- CCOC(=O)C1CCN(C(=O)CSc2n[nH]c(-c3ccccc3Cl)n2)CC1
  -2%	.	-19%[46.1 µM]	-10%	.	.	1.7%	.
- Cc1nc2sc(C#N)c(N)c2c2c1CCCC2
  ?	-58%	3%	12%	14%	-2%	0.7%	6%
- Cc1nc2c(-c3ccccc3)c(C)nn2c(C)c1CCC(=O)N1CCOCC1
  ?	-55%	-27%	-8%	-4%	8%	0.8%	10%
- CC(=O)c1cccc(NC(=S)NC(=O)c2cccc(C)c2)c1
  -5%	6%	-5%	-8%	?	.	-7.6%	-11%
- CCOc1c(Br)cc(C(=O)NCCCn2ccnc2)cc1OC
  .	-4%	.	1%	.	4%	.	1%
- Nc1ccc2nn(-c3ccc(F)cc3)nc2c1
  .	?	.	50%[activator]	.	-8%	.	1%
- CCCC(=O)N1CCN(c2ccc(NC(=O)c3cccs3)cc2Cl)CC1
  .	-4%	-9%[46.1 µM]	7%	?	7%	.	-1%
- COc1cc2c(cc1OC)CN(Cc1ccc(C)s1)CC2
  17%	-1%	-6%	-5%	-17%	2%	3.8%	-3%
- O=C1c2oc3ccc(Br)cc3c(=O)c2C(c2cccc(F)c2)N1CCO (stereo not drawn)
  10%	9%	1%	0%	1%	-7%	-0.3%	5%
- O=C(CSc1nnc(NC(=O)c2c(F)cccc2F)s1)NC1CC1
  .	6%	10%	-21%	10%[46.1 µM]	1%	.	6%
- C/C(Cn1nnc([N+](=O)[O-])n1)=N\NC(=O)c1cccc(Cl)c1
  -2%	3%	?	.	?	-11%	-2.4%	7%
- CC(C)c1oc(=O)cc2c1[C@@H](O)[C@H]1OC(=O)[C@@]3(C)CC[C@@H](O)[C@@]2(C)C13 (stereo partly drawn)
  3%	12%	?	?	?	-4%	-0.1%	13%
- N#C/C(=C\c1ccc(-c2nc3ccccc3s2)o1)C(N)=O
  .	-4%	?	58%[activator]	-7%	-13%	.	-4%
- S=C(Nc1ccc2[nH]ccc2c1)NC1CCCCC1
  .	-1%	.	10%	0%	25%	.	-2%
- CCn1nc(NS(=O)(=O)c2ccccc2)c2cc3cccc(C)c3nc21
  -8%	1%	?	56%[activator]	-19%	0%	-13%	0%
- COc1cccc(C(=O)COc2ccc(NC(=O)c3ccccc3)cc2)c1
  .	4%	7%[46.1 µM]	0%	.	4%	.	-7%
- Cc1ccc(CCNS(=O)(=O)c2ccc(C)cc2)cc1
  3%	-49%	?	55%[activator]	7%	12%[3.69 µM]	-3.5%	-6%
- COC(=O)c1c(C)nn(-c2ccc(F)cc2)c1-n1cccc1
  0%	.	-24%[46.1 µM]	5%	6%[46.1 µM]	.	-3.0%	.
- CC1=NN(c2ccccc2)C(=O)C1N=Nc1cccc(O)c1 (stereo not drawn)
  .	-6%	-13%[46.1 µM]	14%	?	-26%	.	-5%
- COc1ccc(CCC(=O)Nc2ncc(C)s2)cc1
  .	4%	.	31%[activator]	4%	1%	.	-2%
- O=C(NCc1ccccn1)C12CC3CC(CC(C3)C1)C2
  .	-4%	9%	-1%	?	3%	.	1%
- O=C(OCCCCN1C(=O)c2ccccc2C1=O)c1n[nH]c2ccccc12
  -7%	-41%	?	?	8%	26%	-5.3%	-6%
- S=c1[nH]ccn1Cc1ccccc1
  .	.	?	-2%	-2%	2%	.	4%
- COc1cccc(CSc2nc3cc(C(=O)NC4CCCC4)ccc3c(=O)n2Cc2ccccc2)c1
  2%	.	4%[46.1 µM]	-15%	.	.	-0.6%	.
- CCn1nc(C(=O)Nc2ccccc2C)c(Cl)c1Cl
  7%	-13%	14%	10%	?	11%	1.6%	-4%
- Cn1c(SCCN2CCOCC2)nc2sc3c(c2c1=O)CCCC3
  .	26%	.	23%	.	15%	.	6%
